High-throughput results (PubChem)
PINK1 expr mod: modulators of PINK1 expression; PINK1 immunofluorescence, high-content cytometry, 24 h; Potency, µM (series often up to 76.6 µM), without a hit: at the highest dose activation (PINK1 increase), usual class: activators; hit rate 0.2% among 410,000; active = well fitted activation curve with a large enough effect; inconclusive = small, poorly fitted or top-dose-only effect; inactive = flat fitted curve, though single readings scatter; cell line not stated here;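 also: potency is read from the fitted curve at half-maximal effect; % of control where 0% means no effect; nearly all actives have a fitted effect of over 65% in size; a mitochondrial uncoupler was the plate control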
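A stable cell line was treated with compounds at 5 concentrations for 24 hours, with CCCP as control. PINK1 levels and mitochondrial localization were measured by immunofluorescence with mitochondrial, cell and nuclear markers after fixation, read by laser-scanning cytometry.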
TRPML1 ag: human mucolipin-1 channel agonism | activation, % (no concentration beside the values) | hit rate 0.12% among 410,000 | TRPML1-expressing cells, Ca2+ dye fluorescence, FDSS; host cell line not named in the record; reference of the full effect not given here | Q9GZU1 | AID 624414; in the data active = activation above about 50%; inconclusive = about 30% to 50%; inactive = below about 30%; also: 0% is about no effect; the text of the record puts the active cut at 80%
Target sequence (Q9GZU1 whole entry, looked up): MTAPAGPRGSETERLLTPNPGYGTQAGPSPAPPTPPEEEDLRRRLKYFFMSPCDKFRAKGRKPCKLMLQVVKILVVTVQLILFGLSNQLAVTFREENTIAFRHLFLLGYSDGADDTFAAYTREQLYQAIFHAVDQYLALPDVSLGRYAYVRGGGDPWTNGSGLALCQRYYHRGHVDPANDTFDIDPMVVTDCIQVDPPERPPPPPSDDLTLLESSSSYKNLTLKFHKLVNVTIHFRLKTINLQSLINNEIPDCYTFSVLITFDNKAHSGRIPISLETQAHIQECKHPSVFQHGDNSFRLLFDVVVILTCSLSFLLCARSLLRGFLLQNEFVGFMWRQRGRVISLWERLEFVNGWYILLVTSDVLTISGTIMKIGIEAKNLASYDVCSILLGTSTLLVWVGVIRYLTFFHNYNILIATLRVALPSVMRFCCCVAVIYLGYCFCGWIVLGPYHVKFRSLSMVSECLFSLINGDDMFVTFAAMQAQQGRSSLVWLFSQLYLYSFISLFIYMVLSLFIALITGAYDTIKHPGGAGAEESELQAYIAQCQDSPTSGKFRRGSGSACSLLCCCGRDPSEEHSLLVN
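Tetracycline-induced TRPML1-DL cells are seeded and incubated overnight before loading with a no-wash Ca2+ dye and quencher. Agonist activity is taken from the 110 s fluorescence read following compound pin-transfer on an FDSS, before EC80 54-4 challenge.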
D2 ag: agonists of human D2 dopamine receptor (beta-arrestin); P14416; DiscoveRx PathHunter D2 beta-arrestin, luminescence, 90 min; 100% = 57 uM dopamine signal; activation, % (concentration not given with the values); hit rate 0.084% among 360,000; AID 624465; in the data active = activation above about 40%; inconclusive = about 15% to 40%; inactive = below about 15%; also: compound concentration not given in the record; the text of the record calls up to 30% inactive
Target sequence (P14416 whole entry, looked up): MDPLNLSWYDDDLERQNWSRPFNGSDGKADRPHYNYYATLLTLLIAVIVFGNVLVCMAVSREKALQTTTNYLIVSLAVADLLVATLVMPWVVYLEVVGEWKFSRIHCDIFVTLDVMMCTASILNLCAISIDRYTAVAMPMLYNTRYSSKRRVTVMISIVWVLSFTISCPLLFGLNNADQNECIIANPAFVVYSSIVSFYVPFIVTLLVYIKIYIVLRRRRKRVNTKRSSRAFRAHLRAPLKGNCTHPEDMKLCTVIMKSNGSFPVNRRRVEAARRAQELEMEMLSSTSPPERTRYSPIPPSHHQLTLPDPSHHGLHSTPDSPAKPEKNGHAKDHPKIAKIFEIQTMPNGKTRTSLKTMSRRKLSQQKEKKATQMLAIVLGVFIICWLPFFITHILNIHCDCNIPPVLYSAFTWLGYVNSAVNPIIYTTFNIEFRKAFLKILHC
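Agonist mode: compounds alone added to overnight-plated D2 PathHunter cells for 90 min at 37 C, with 57 uM final dopamine (EC100) defining full response. Beta-arrestin recruitment detected by chemiluminescent reagent, read after 1 h at ambient temperature.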
Six1-Eya2 inh: Six1/Eya2 interaction inhibition | Q15475+O00167 | AlphaScreen GST-Six1/His-Eya2 binding, biochemical; hits give low values; control for the full effect not named in the record | activity change, % (test concentration not listed) | hit rate 0.56% among 360,000; in the data active = activity change below about -65%; inconclusive = about -30% to -65%; inactive = above about -30%; also: % is scaled to controls: 0 for no effect and ±100 for the full control effect; compound concentration not given in the record
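Six1/Eya2 binding was read as AlphaScreen signal after compounds were pinned into GST-Six1 plus His-tagged Eya2 (5X stock 250/500 nM) in pH 8.0 Tris/NaCl/TCEP buffer, beads added, then incubated 1 h, 37 C, dark.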
TRPML1 inh: inhibitors of human TRPML1 channel | Q9GZU1 | TRPML1-inducible cells, Ca2+ dye fluorescence, FDSS; hits give low values; inhibition of EC80 agonist-evoked calcium signal | activity change, negative = inhibition, % (no concentration beside the values) | hit rate 0.02% among 390,000 | AID 624415; in the data active means activity change below about -50%; inconclusive means about -30% to -50%; inactive means above about -30%;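 also: stimulus is agonist 54-4 at its EC80 concentration; % is scaled to controls: 0 for no effect and ±100 for the full control effect; compound concentration not given in the record; the text of the record puts the active cut at -80%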
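TRPML1-DL cells, Tet-induced overnight (~16 h, 37 °C) at 1,500 cells/well, were loaded with Ca8 no-wash dye plus quencher for 45-90 min at room temperature. Compounds were pinned during FDSS kinetic reading; agonist 54-4 at EC80 (4 uM final) then added.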
D2 potentiator: potentiates the human D2 dopamine receptor allosterically; potentiation, % (concentration not given with the values); DiscoveRx D2 beta-arrestin cells, luminescence, 90 min; 100% = 57 uM dopamine signal; AID 624464; P14416; hit rate 0.23% among 360,000; active = potentiation of 50% or more; inconclusive = 30% to 50%; inactive = 30% or less;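 also: compound concentration not given in the record; tested on top of an EC20 dose of dopamine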
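PathHunter D2 cells, attached overnight at 37 deg C, received compound in DMSO plus dopamine at EC20 (50 nM final) for 90 min at 37 deg C. Beta-arrestin recruitment was read as luminescence after 1 h with detection reagent at ambient temperature.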
Active calls of the source: *; ? = inconclusive; . = not tested or not shown; [ ] = dose if it differs, or a comment.

SMILES	PINK1 expr mod	TRPML1 ag	D2 ag	Six1-Eya2 inh	TRPML1 inh	D2 potentiator
CC(C(=O)NC1CCCC1)N1CCN(S(=O)(=O)c2ccccc2Cl)CC1 (configuration not stated)	1.0%	-0.6	-3.7	-5	-9	-1
O=c1[nH]c(-c2ccccc2)cs1	5.1%	1.2	0.9	0	17	-14
O=C(N/N=C/c1cccc([N+](=O)[O-])c1)c1ccncc1	2.3%	-0.2	-2.0	2	10	0
CC(C)OC(=O)/C(=C\c1ccccc1)NC(=O)c1ccccc1	0.5%	1.1	-4.0	2	-24	3
CCCOc1ccc(CNC(=O)C2CCN(c3nc4ccccc4nc3C(F)(F)F)CC2)cc1	0.0%	-0.3	.	.	22	.
CC1CCCN(c2nc3c(c(=O)[nH]c(=O)n3C)n2CCCc2ccccc2)C1 (configuration not stated)	2.3%	0.8	-1.9	3	6	-6
CCCCCCN1Cc2ccccc2C1	9.3%	0.3	-3.8	0	-17	-31
O=C(Nc1cccc(F)c1)c1ccc(S(=O)(=O)N2CCCCC2)cc1	2.6%	0.8	3.7	2	12	-15
CCc1nnc(SCC(=O)Nc2cc(Cl)c(OC)cc2OC)c2cc3oc(C)cc3n12	0.1%	-0.9	.	.	20	.
CCn1ccnc1CN(C)Cc1nc(-c2ccc(C(=O)OC)cc2)no1	1.0%	0.1	3.0	-3	-17	-8
CC(=O)c1ccc(NC(=O)CSc2nccn2CCc2ccccc2)cc1	0.6%	-1.0	-3.4	-9	10	-3
CC(=O)N1c2ccc(S(=O)(=O)N(C)CC(=O)Nc3ccccc3C)cc2CC1C (configuration not stated)	-1.5%	1.0	-3.6	6	-7	-13
CCc1ccc(N2CC(C)Cn3c2nc2c3c(=O)n(CCN3CCOCC3)c(=O)n2C)cc1 (configuration not stated)	1.4%	-1.0	-2.1	8	7	-10
CCOC(=O)C1CCCN(C(=O)c2cc(C)oc2C)CC1 (configuration not stated)	-1.3%	-0.1	-1.1	-3	-5	-1
COc1cc(C)c(S(=O)(=O)N2CCCC2)cc1C	4.2%	5.2	-4.4	1	-2	-11
CCC(=O)Nc1cccc(NC(=O)CSc2nnnn2C)c1	8.1%[38.3 µM]	8.2	-5.8	6	-7	-17
COc1ccc(OC(C)C(=O)NC(C)c2ccccc2)cc1 (configuration not stated)	4.6%	0.3	-5.3	21	-12	-2
CCOc1ccc(N(CC(=O)NC(C)C)C(=O)CCC(=O)Nc2ccccn2)cc1	0.5%	0.5	-1.1	14	5	-2
CC(=O)NN1C(=O)c2ccccc2NC1c1ccc([N+](=O)[O-])o1 (configuration not stated)	-0.3%	0.9	-2.6	2	23	4
CCOC(=O)C1C(=O)CC(C)(O)C(C(=O)OCC)C1c1ccc(OC)cc1 (configuration not stated)	0.4%	-0.4	-3.5	3	4	-2
CCn1c(SCC(=O)NCCc2ccc(OC)c(OC)c2)nc2c1c(=O)n(C)c(=O)n2C	-1.1%	0.1	-0.5	8	-2	-8
CN(CC(=O)Nc1ccc(OC(F)(F)F)cc1)S(=O)(=O)c1ccc2c(c1)CCC(=O)N2	0.0%	-0.4	.	.	-2	.
CCOC(=O)N1CCN(Cc2nc3c(c(=O)n(C)c(=O)n3C)n2Cc2cccc3ccccc23)CC1	-0.4%	0.7	-0.3	0	1	-7
CN(C)S(=O)(=O)c1cccc(NC(=O)c2ccccc2SCC(=O)N2CCCC2)c1	0.9%	-0.4	1.1	0	6	-3
COc1ccc(NC(=O)CN2CCN(c3ccccn3)CC2)cc1Cl	1.5%	.	8.7	-4	.	-5
CCOc1ccccc1C(=O)NCC(c1ccc(N(C)C)cc1)N1CCCC1 (configuration not stated)	-1.5%	-0.7	.	.	20	.
COc1cc(OC)nc(NC(=O)CSc2nnc(-c3ccccc3)n2C2CCCCC2)n1	-1.6%	-0.2	-1.5	8	2	-6
CCCCOc1ccc(C(=O)N2CCN(CCc3ccccn3)CC2)cc1	-0.1%	1.3	.	.	4	.
O=C(N/N=C/c1ccncc1)c1cnccn1	-0.9%	-0.1	1.5	-2	0	-6
Fc1ccc(-n2c(=S)[nH]c3cccnc32)cc1	17%	-0.1	0.3	0	10	-5
COc1ccc(CC(=O)Nc2nnc(-c3cccc([N+](=O)[O-])c3)s2)cc1	-1.3%	0.0	-5.4	3	-11	-3
CCOc1cc(C2C3=C(CCCC3=O)NC3=C2C(=O)CCC3)cc(Cl)c1O	-1.0%	-0.2	3.0	3	-5	15
CCOc1ccc(OCCC(=O)N(CC)CC(=O)Nc2ccccc2C(F)(F)F)cc1	-2.2%	1.5	-1.4	0	-13	-16
O=C(NCCCO)/C(=C/c1ccc(-c2cccc([N+](=O)[O-])c2)o1)NC(=O)c1ccccc1	-0.4%	-0.4	-1.0	-5	-18	-4
C=C(C)c1cccc(C(C)(C)NC(=O)N2CCN(c3ccc(OC)cc3)CC2)c1	-0.4%	2.3	1.3	-15	12	-3
N=C1C=CC=C2C1=NC1(CCCCC1)N2O	.	-0.3	2.8	-22	-10	?
CCCc1nnc(NC(=O)CSc2nc3ccccc3[nH]2)s1	-0.1%	-0.7	0.0	2	1	2
S=C(NCCc1ccc(Cl)cc1)NC1CC1	1.6%	0.6	-5.1	-8	-5	-3
Cn1c(NC(=O)c2ccccc2)cc(=O)n(C)c1=O	0.0%	-0.4	0.4	1	-3	-4
CC1CCC(C(C)C)C(OC(=O)COC(=O)c2cc(O)ccc2N)C1 (configuration not stated)	-0.5%	1.5	?	-9	3	93*
COc1ccc(Cl)cc1N/C(N)=N/c1nc(CSc2ccc(C)cc2)cc(=O)[nH]1	21%[38.3 µM]	1.4	-3.6	-1	19	-3
NC(=O)CSc1nc2cc3c(cc2c(=O)n1CCCCCC(=O)NCc1ccc2c(c1)OCO2)OCO3	2.2%	1.9	.	.	23	.
CCOC(=O)CCc1c(C)nc2ncnn2c1C	-3.4%	-0.4	-3.5	-1	-5	-7
CC(NC(=O)COc1ccccc1)C(=O)NC1=NCCS1 (configuration not stated)	.	-0.1	-1.5	15	-20	-11
CC(C)NC(=O)C1(C)CCN1C(=O)c1ccccc1 (configuration not stated)	-0.1%	0.2	-4.5	6	.	-8
COc1ccc(-c2nc3sc(CCNC(=O)C(=O)Nc4c(C)cccc4C)c(C)n3n2)cc1	0.6%	0.7	.	.	-5	.
COc1ccc(CCNS(=O)(=O)c2cccc3nsnc23)cc1OC	-3.3%[38.3 µM]	0.0	2.1	1	-1	-9
Cn1c(C(=O)N2CCCC(C(=O)NCc3cccs3)C2)cc2sccc21 (configuration not stated)	-0.4%[38.3 µM]	0.1	0.0	0	-6	-8
O=C(O)c1ccccc1-c1ccccc1C(=O)NCc1ccco1	1.7%	0.4	-1.4	-2	-4	-10
CC(OC(=O)C1CCN(S(=O)(=O)c2ccc3c(c2)OCCO3)CC1)C(=O)NC1(C#N)CCCCC1 (configuration not stated)	-0.8%	0.9	3.4	0	-1	-3
Cc1ccc(NC(=S)N(Cc2cccc(Br)c2)CC2CCC(C(=O)O)CC2)cc1Cl (configuration not stated)	-0.5%	-0.2	-0.1	0	3	-8
COc1ccc(NC(=S)Nc2ccccc2)cn1	0.1%	1.3	0.4	2	24	-4
CN(c1ccccc1)c1nc(N)c([N+](=O)[O-])c(Nc2cccc(F)c2)n1	8.1%	2.7	-0.2	-9	34	5
CCCn1c(=N)c(S(=O)(=O)c2ccc(F)cc2)cc2c(=O)n3ccccc3nc21	5.0%	-1.3	-5.9	1	-5	-7
CS(=O)(=O)c1cccc(NC(=O)CSc2nnc3n2CCCCC3)c1	-0.1%	0.1	-3.1	7	-1	-2
Cc1ccc(NC(=O)COC(=O)c2ccnn2C)cc1	.	0.0	-0.8	7	23	-3
COC(=O)N/N=C(\CCC(=O)O)c1cccs1	-2.3%	0.6	0.5	11	1	-2
COC(=O)[C@@]1(Cc2ccc(OC)cc2)[C@H]2c3cc(C(=O)N4CCCC4)n(CCn4cc([N+](=O)[O-])nc4C)c3C[C@H]2CN1C(=O)c1ccccc1	0.5%	1.0	-3.4	0	6	-31
COc1c2occc2cc2ccc(=O)oc12	-0.8%	0.0	2.2	-3	4	-3
COCCNC(=O)c1ccc(CSc2nc3ccncc3n2Cc2ccccc2)cc1	-1.4%	-0.8	.	.	-1	.
Next part
SMILES	PINK1 expr mod	TRPML1 ag	D2 ag	Six1-Eya2 inh	TRPML1 inh	D2 potentiator
COC(=O)C1=C(O)C(C(=O)OC)C(c2ccc(C)cc2)C(C#N)(C#N)C1c1ccc(C)cc1 (configuration not stated)	2.0%	1.1	-0.8	-2	-3	-3
CCCCc1ccc(NC(=O)c2ccc(=O)n(Cc3cccc(C)c3)c2)cc1	-2.2%	1.8	.	.	40	.
COC(=O)[C@H](Cc1ccccc1)NC(=O)NCC1CCCO1 (some centres not stated)	5.3%[38.3 µM]	3.2	-1.6	4	7	11
C[C@H](CO)N1C[C@H](C)[C@@H](CN(C)S(C)(=O)=O)Oc2c(NC(=O)C3CC3)cccc2C1=O	1.3%	-0.7	1.7	6	15	-32
CCOc1ccc(S(=O)(=O)Nc2ccc(OC)nc2)cc1	-0.1%	0.9	-0.2	11	-1	1
O=C(c1cc(-c2ccccc2)on1)N1CCc2ccccc2C1	0.7%	0.2	-6.3	11	-1	-9
O=C1CCCc2[nH]nc(-c3cccnc3)c21	-0.4%[38.3 µM]	-0.3	0.1	2	-3	-3
Cc1ccc(C)c(NC(=O)Cn2c([N+](=O)[O-])cnc2C)c1	0.9%	0.3	-1.6	3	17	-2
CC(=O)Nc1ccc(S(=O)(=O)NCC2CCC(C(=O)NCCN(CC(C)C)CC(C)C)CC2)cc1 (configuration not stated)	2.4%	1.4	.	.	16	.
CCOC(=O)C1=C(CS(=O)(=O)c2ccc(C)cc2)NC(=O)NC1c1cc(OC)c(OC)c(OC)c1 (configuration not stated)	-0.6%	-0.3	1.7	0	0	-2
COC(=O)Cc1cnc(NC(=O)C2C3CCC(C3)C2C(=O)O)s1 (configuration not stated)	-0.6%	-0.2	-0.2	-1	-8	7

In a second layout: 4 of the compounds above.
CCc1nnc(SCC(=O)Nc2cc(Cl)c(OC)cc2OC)c2cc3oc(C)cc3n12
  PINK1 expr mod: 0.1%	TRPML1 ag: -0.9	D2 ag: .	Six1-Eya2 inh: .	TRPML1 inh: 20	D2 potentiator: .
O=C1CCCc2[nH]nc(-c3cccnc3)c21
  PINK1 expr mod: -0.4%[38.3 µM]	TRPML1 ag: -0.3	D2 ag: 0.1	Six1-Eya2 inh: 2	TRPML1 inh: -3	D2 potentiator: -3
CCn1c(SCC(=O)NCCc2ccc(OC)c(OC)c2)nc2c1c(=O)n(C)c(=O)n2C
  PINK1 expr mod: -1.1%	TRPML1 ag: 0.1	D2 ag: -0.5	Six1-Eya2 inh: 8	TRPML1 inh: -2	D2 potentiator: -8
CC(=O)NN1C(=O)c2ccccc2NC1c1ccc([N+](=O)[O-])o1 (configuration not stated)
  PINK1 expr mod: -0.3%	TRPML1 ag: 0.9	D2 ag: -2.6	Six1-Eya2 inh: 2	TRPML1 inh: 23	D2 potentiator: 4
